UCH37 inh: inhibitors of human UCH37 deubiquitinase, primary screen, biochemical, Ub-AMC cleavage, fluorescence | hit rate 0.33% among 330,000 | purified proteasome/UCH37 | Ubiquitin carboxyl-terminal hydrolase isozyme L5 (Homo sapiens), Q9Y5K5 | inhibition, % (test concentration not listed) | AID 588478, 2011;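 active = mean of two replicates above 20%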;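 also: 0% = compound-free wells with enzyme and 100% = wells lacking proteasome; stock transfer was 100 nL into about 20 µL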
Target sequence (Q9Y5K5 whole entry, looked up): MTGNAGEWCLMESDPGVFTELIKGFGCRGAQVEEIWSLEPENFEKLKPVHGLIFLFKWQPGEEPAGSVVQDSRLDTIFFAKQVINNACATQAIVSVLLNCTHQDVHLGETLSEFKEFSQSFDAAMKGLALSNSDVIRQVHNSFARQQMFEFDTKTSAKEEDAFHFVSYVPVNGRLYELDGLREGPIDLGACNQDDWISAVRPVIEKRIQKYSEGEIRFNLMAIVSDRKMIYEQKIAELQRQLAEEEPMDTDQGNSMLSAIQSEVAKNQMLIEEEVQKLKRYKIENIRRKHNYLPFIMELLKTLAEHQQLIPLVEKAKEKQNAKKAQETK
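system = Proteasome-associated human UCH37 deubiquitinase | amount = 0.15 nM proteasome as dispensed | medium = pH 7.4 Tris-HCl (50 mM) with ovalbumin, ATP-MgCl2, DTT | incubation = 30 min preincubation with enzyme, 25 min cleavage at room temperature | detection = AMC fluorescence 355/460 nm | read-out basis = percent inhibition | controls = no-proteasome and no-compound wells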
LANA-H2A inh: blockers of LANA interaction with H2A/H2B – biochemical, FP readout, HTS, primary screen; Protein LANA1 (Human herpesvirus 8 type P (isolate GK18)), Q9QR71; cell-free LANA-H2A/H2B peptide, fluorescence polarization; inhibition, % (test concentration not listed); hit rate 0.6% among 320,000; in the data active = inhibition mostly above about 10%, no sharp cut-off; inactive = mostly below about 6.7%;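 also: stock transfer was 7.5 nL into about 10 µL; 0% = median of vehicle wells and 100% = median of positive control wells; one replicate is shown; the record names a cut of 25% in any replicate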
B2AR ag: beta2AR agonists driving receptor internalization, primary screen, cell-based, FAP fluorogen, flow cytometry; Am2.2-beta2AR cells; reference of the scale not given here; response, % (test concentration not listed); Beta-2 adrenergic receptor (Homo sapiens), P07550; hit rate 0.43% among 340,000; AID 504454, 2011;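 active = response above a set limit, near 3 SD of response in nonfluorescent compounds, cut at about 42% in these data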;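 also: stock transfer was 100 nL into about 11 µL; a reference agonist was the positive control; negative values mostly stem from fluorescent compounds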
Target sequence (P07550 whole entry, looked up): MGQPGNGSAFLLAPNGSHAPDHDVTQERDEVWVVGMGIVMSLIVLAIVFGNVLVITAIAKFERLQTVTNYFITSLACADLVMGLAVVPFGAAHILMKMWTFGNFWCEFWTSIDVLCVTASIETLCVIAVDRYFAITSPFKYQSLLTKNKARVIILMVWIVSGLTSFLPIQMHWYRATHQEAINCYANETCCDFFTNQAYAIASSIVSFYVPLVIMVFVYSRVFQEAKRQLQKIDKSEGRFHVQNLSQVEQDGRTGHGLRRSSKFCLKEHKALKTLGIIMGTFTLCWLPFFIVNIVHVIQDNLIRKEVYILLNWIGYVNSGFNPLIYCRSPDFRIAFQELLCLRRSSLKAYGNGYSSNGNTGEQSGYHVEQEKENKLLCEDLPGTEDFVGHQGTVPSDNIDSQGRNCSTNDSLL
Calb FLC: C. albicans growth inhibition with fluconazole, primary screen, CaCi-2 strain, Alamar Blue fluorescence | C. albicans CaCi-2 (fluconazole-resistant clinical isolate) + fluconazole, 48 h | growth inhibition, % (no concentration beside the values) | hit rate 0.57% among 300,000 | AID 1979, 2009;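 active = most replicates above 75%; inconclusive = exactly half above 75%; inactive = most below 75%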;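 also: all wells also contain fluconazole at 8 µg/ml as a sub-toxic cotreatment; 0% = median of DMSO wells and 100% = median of geldanamycin control wells; wells of about 8 µL received 7.5 nL stock; the first replicate is given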
T cruzi inh: inhibitors of intracellular T. cruzi growth, primary screen, luminescence, NIH3T3 host cells. T. cruzi beta-gal in NIH3T3, 90 h. inhibition, % (no concentration beside the values). hit rate 1.4% among 300,000. AID 1885, 2009;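 active = mean inhibition across valid replicates above about 55%, limit read from the data; inconclusive = mean below that limit but half or more replicates reach it; inactive = mean below it, under half of replicates reach it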;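 also: signal also drops with host cell toxicity which is not excluded here; 0% = plate median of DMSO wells and 100% = zero luminescence signal; higher percent means less beta-gal luminescence so fewer parasites; stock transfer was 50 nL into about 50 µL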
Beta apoptosis: inhibitors of cytokine-induced beta cell apoptosis, primary screen, luminescence | INS-1E cytokine-induced death, ATP luminescence, 48 h; percent of positive-control rescue, neutral wells zero | protection from apoptosis, % (test concentration not listed) | hit rate 0.8% among 300,000 | AID 435005, 2010;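 active = all replicates at 75% or more, or half of them and the mean; inconclusive = half reach 75% but not the mean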;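 also: 0% = cytokine-treated negative control wells and 100% = positive control rescue; higher means more ATP so stronger rescue from cytokine killing; wells of about 40 µL received 100 nL stock; the first replicate is given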
RanGTP-Impb inh: inhibitors of RanGTP-importin-beta interaction, primary screen, biochemical, FRET, CFP-Ran, YFP-importin-beta, homogeneous. AID 2216, 2009. cell-free CFP-Ran/YFP-importin-beta FRET ratio. inhibition, % (concentration not given with the values). hit rate 1.1% among 300,000;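 active = most replicates above 15%; inconclusive = exactly half above 15%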;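 also: 0% = DMSO wells and 100% = Ran loaded with GDP instead of GTP; wells of about 40 µL received 100 nL stock; the first replicate is given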
A1 inh: caspase 3/7 activation in MEF A1-2A-BIM cells, primary screen, A1 inhibitor project, cell-based, luminescence, HTS; Caspase-Glo 3/7 luminescence, 3 h; percent of clofoctol response, vehicle zero; caspase activation, % (no concentration beside the values); hit rate 0.066% among 330,000;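 active = over half of replicate activation scores above 10%, or exactly half above 10 with the replicate mean above 10; inconclusive = replicate mean below 10 yet half the replicates above 10; inactive = over half of replicates below 10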;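 also: wells of about 30 µL received 50 nL stock; many hits fall short of the cut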
* hit, by the source's call; i = inactive; ? = inconclusive; . = no result given.

SMILES | UCH37 inh | LANA-H2A inh | B2AR ag | Calb FLC | T cruzi inh | Beta apoptosis | RanGTP-Impb inh | A1 inh
Cc1coc2cc3oc(=O)c(CCC(=O)NCC(=O)O)c(C)c3cc12 | -103.6 | 2.7 | -2.4 | -0.6 | -3.3 | -0.4 | -3.3 | 0.4
Oc1ccccc1CN1CCCC(N2CCc3ccccc3C2)C1 (configuration not stated) | 0.4 | 0.6 | 2.5 | -13.6 | 20.5 | -2.5 | -0.7 | 0.7
CCCC(=O)n1nc(-c2ccc(Cl)cc2)nc1SC | . | 12.0 | -8.2 | 9.5 | 10.2 | -5.1 | 2.3 | -0.9
CCN(CCCNS(=O)(=O)c1ccc2c(c1)CCN2C(C)=O)c1cccc(C)c1 | 4.9 | 3.6 | -20.2 | 5.2 | 7.2 | . | -0.4 | -0.6
Cc1cccn2c(=O)c3cc(C(=O)NC4CCCC4)c(=N)n(CCc4ccccc4)c3nc12 | i | 14.3* | 78.7* | 31.5 | 34.7 | -7.6 | 178.6* | -0.6
CN(Cc1c(F)cccc1Cl)C(=O)c1ccc(NC(=O)CC2SC(N3CCCCC3)=NC2=O)cc1 (configuration not stated) | 0.6 | 0.3 | 10.4 | . | . | -2.4 | . | -1.1
O=S(=O)(Nc1ccc(O)c2ccccc12)c1cccs1 | 2.2 | -1.1 | 8.5 | 37.5 | 9.5 | 20.0 | -3.3 | 0.6
COc1ccc(-n2c(=O)c3c4c(sc3n(CC(N)=O)c2=O)CCCCC4)cc1 | 3.2 | -1.3 | -15.2 | 1.7 | 16.8 | . | -2.4 | 1.4
CCOc1ccc(Cl)cc1CNCCCSc1nc(C)cc(C)n1 | 5.2 | 8.7 | -1.7 | -19.2 | 16.6 | . | 2.6 | 1.2
Cn1cc(-c2ccc(Cl)cc2)cc(C#N)c1=O | -227.1 | 3.1 | 7.9 | -1.1 | -15.9 | . | -1.3 | -0.2
Cc1ccccc1NC(=S)N(C)Cc1cn(C)c2ccccc12 | . | -5.4 | 13.1 | 9.4 | 7.9 | 5.2 | -1.0 | 0.3
CC(=O)C1=C(C)N(Cc2ccccc2)C(=O)N[C@H]1c1ccco1 | 4.8 | 2.6 | 4.6 | -2.7 | -7.5 | -4.2 | 2.8 | 0.4
COC(=O)C(C)N(c1ccc(C)cc1)S(=O)(=O)c1c(C)[nH]c(=O)[nH]c1=O (configuration not stated) | 1.0 | 0.6 | -2.5 | -18.2 | -19.5 | 5.5 | 1.2 | 0.4
COc1ccc(Nc2ncnc3ccc(Br)cc23)cc1OC | 4.7 | -1.0 | 2.6 | 0.7 | -0.5 | -13.4 | 0.0 | 0.7
CCSc1nnc(NC(=O)C2C3CCC(C3)C2C(=O)O)s1 (configuration not stated) | 1.8 | 2.0 | 1.5 | 0.8 | -6.5 | . | -2.9 | -0.5
Cc1ccc(CNC(=O)c2cc3c(=O)n4ccccc4nc3n(CC3CCCO3)c2=N)cc1 (configuration not stated) | i | 4.0 | -4.5 | -5.9 | 30.1 | . | -9.7 | 0.4
O=[N+]([O-])c1ccc(/C=N/Nc2ncc(-c3ccccc3)cn2)cc1 | . | . | -4.0 | 17.5 | -8.4 | . | 1.3 | .
C/C=C/c1ccc(OCC(=O)Nc2cc(S(=O)(=O)N3CCOCC3)ccc2N2CCCC2)c(OC)c1 | 2.7 | -5.0 | 5.9 | 10.6 | 15.4 | . | ? | 0.9
O=C(N/N=C/c1cc(Br)cs1)C(O)c1ccccc1 (configuration not stated) | . | 0.9 | 4.7 | -1.3 | -14.1 | -7.5 | -3.8 | -0.2
CCCOc1ccc(Cc2c(O)nc(SC)[nH]c2=O)cc1 | 1.5 | -1.6 | -5.1 | 3.9 | -2.7 | -8.7 | 3.1 | -0.6
COc1ccccc1NC(=O)C1=C(C)Nc2nnnn2C1c1ccncc1 (configuration not stated) | 0.8 | -5.1 | -2.9 | 21.3 | 11.2 | -12.7 | -4.2 | 1.3
Cc1ccccc1NC(=O)Cc1nc(COC(=O)c2ccccn2)cs1 | 4.4 | -5.4 | -2.1 | 5.2 | 12.0 | . | 1.8 | 0.2
C=CCn1c(COc2ccccc2F)nnc1SCC(=O)Nc1cc(C)on1 | 0.9 | -4.2 | 2.2 | 20.3 | -6.0 | -0.2 | -2.6 | 1.9
Cc1cccc(N2CCN(C(=O)c3cccc(NC4=NC5CS(=O)(=O)CC5S4)c3)CC2)c1C (configuration not stated) | 2.5 | -1.8 | 13.4 | 7.3 | -0.6 | -3.9 | -2.9 | .
Cc1cc2nc(CCN(C(=S)NCC3CCCO3)C3CCCC3)[nH]c2cc1C (configuration not stated) | . | 2.0 | -4.7 | -3.7 | 24.8 | 4.2 | -6.7 | 0.2
O=C1N(CCCN2C(=O)C3(OCCO3)c3ccccc32)c2ccccc2C12OCCO2 | -0.5 | -1.9 | 1.7 | 32.9 | 11.1 | -1.8 | -0.7 | 0.7
Cc1cccc(-n2c(C)cc(C=C(C#N)C#N)c2C)c1 | 1.2 | -3.5 | 8.6 | -7.1 | -9.4 | -1.7 | 6.8 | 0.6
COc1ccc(S(=O)(=O)N(C)C[C@H]2Oc3c(NC(=O)Cc4ccccc4)cccc3C(=O)N([C@H](C)CO)C[C@@H]2C)cc1 | 1.9 | -7.9 | -5.8 | . | . | -6.2 | . | 0.2
COc1ccc(C(c2nnnn2C(C)(C)C)N2CCN(c3nc4ccccc4s3)CC2)cc1OC (configuration not stated) | 5.9 | . | 9.8 | 7.9 | 7.2 | . | 3.2 | .
OCCCn1c(CCCNc2nc(-c3cccc(Br)c3)cs2)nc2cc(Cl)c(N3CCCCC3)cc21 | -0.8 | -4.6 | -3.2 | 13.7 | 9.9 | 0.1 | 3.9 | -0.2
COc1ccc(N(CC(=O)NC2CCCCC2)C(=O)CNC(=O)c2ccco2)cc1OC | 0.5 | 3.9 | -0.5 | 2.1 | -12.1 | -1.7 | 0.6 | -1.8
Cc1cc(C(=O)NNC(=S)Nc2ccccc2C)cs1 | 4.5 | -1.1 | 2.3 | 1.2 | 17.9 | -6.1 | 3.4 | 0.5
CCC(=O)/C=C1\Sc2ccc(OC)cc2N1CC | 17.1 | 7.0 | -7.4 | 2.5 | 13.4 | -6.2 | 1.3 | 0.3
Cc1ccc(C(=O)CSc2nnc3c4ccccc4nc(C(C)(C)C)n23)cc1 | 4.2 | -1.7 | 5.8 | 1.7 | 8.5 | 7.8 | 0.2 | 0.1
O=C(CNCC1CCCCC1)Nc1cccc(S(=O)(=O)N2CCOCC2)c1 | -0.1 | -0.9 | -16.4 | -29.2 | 3.8 | -2.9 | 0.4 | 0.9
COc1ccc(Oc2cccc(Cl)c2CNC(=O)CC(C)(C)CC(=O)O)cc1 | 1.6 | -5.6 | -4.7 | 9.6 | -18.4 | . | 10.2 | 1.5
COc1ccc(NC(=O)CN2CCC(NC(=O)c3ccc(OC)cc3)CC2)cc1 | 3.2 | 0.2 | -2.1 | -2.7 | -7.4 | 0.3 | 3.0 | 3.5
CCCOc1cccc(C2/C(=C(/O)c3ccccc3)C(=O)C(=O)N2CCN(C)C)c1 (configuration not stated) | 9.4 | . | 13.0 | -5.6 | 2.3 | . | -2.4 | .
O=C(CN1CCCN(Cc2ccc(F)cc2Cl)C1=O)NC1CCCCCCC1 | 4.3 | 3.1 | 9.3 | -14.4 | 12.5 | 4.1 | 0.6 | 1.3
CC1C(c2ccccc2)N(C)C(c2ccccc2)C(C)C1(O)C#Cc1ccccc1 (configuration not stated) | -1.1 | -6.9 | 12.8 | . | . | 10.3 | . | 0.1
CC1CC(=O)Nc2ccccc2N1S(=O)(=O)c1cccc(Cl)c1 (configuration not stated) | -0.4 | -4.3 | 7.6 | 4.6 | -4.3 | -9.5 | -1.7 | 0.2
C=CCSc1nnc(-c2c[nH]c3ccccc23)n1CCOC | 2.0 | 5.4 | -0.7 | -15.6 | 17.3 | -1.8 | 9.0 | -0.3
O=C(COc1ccc(Cl)cc1)NCc1nnc(SCC(=O)Nc2ccccc2F)o1 | 3.3 | 1.3 | -7.8 | -3.1 | -12.8 | -1.2 | 0.6 | 3.2
O=C(Nc1ccc(Cl)cc1)[C@@H]1[C@@H]2C(=O)N(c3ccc4ccccc4c3)C(=O)[C@@H]2[C@H]2C=CC=NN21 | 2.1 | -10.3 | 7.2 | -1.6 | 4.7 | -11.0 | 5.6 | -1.1
c1ccc(CNc2cncnc2)cc1 | -22.9 | 0.3 | -1.8 | 14.5 | -16.7 | -1.8 | -0.4 | -1.8
CCN(CC)C(=O)c1[nH]cnc1C(=O)Nc1ccc(C)cc1 | 2.6 | 1.9 | 1.6 | . | . | -3.6 | . | -0.5
Cc1cc(C)cc(-n2ncc3c2CCCC3NC(=O)c2cc(C)n(C)n2)c1 (configuration not stated) | 5.7 | -0.2 | 1.2 | 13.7 | 20.8 | 3.7 | ? | -0.4
CCN(CC)c1ccc(N=CN2CCOCC2)cc1 | 3.0 | 0.4 | 0.2 | 0.0 | 30.0 | . | -2.3 | 1.6
CCC(=O)Nc1ccc2c(c1)ncn2CCc1ccccc1 | -0.3 | 1.7 | -18.7 | -0.8 | -0.9 | -5.2 | -0.2 | 1.8
COc1ccc(NC(=O)c2cncc(Br)c2)cc1S(=O)(=O)N1CCCCC1 | 4.2 | -2.1 | -3.6 | 12.9 | -3.7 | . | 2.8 | -1.2
COCCNC(=S)Nc1ccc2nsnc2c1 | 5.7 | 0.2 | 1.6 | 32.4 | -46.9 | -8.7 | -1.7 | -0.1
COc1ccccc1COC(=O)Nc1c(C)nn(C)c1Cl | 5.5 | -1.1 | -6.1 | -13.7 | -7.5 | -2.4 | 5.4 | 0.2
CN(C)c1ccc(CNCCC(Cc2ccccc2)c2ccco2)cc1 (configuration not stated) | 2.0 | -18.4 | 6.6 | -28.4 | 60.9* | 29.8 | 2.6 | -0.2
O=C(NN=C1CCCC1)c1ccc([N+](=O)[O-])cc1 | 0.0 | -1.7 | -2.0 | -8.2 | -7.5 | -1.6 | -3.0 | -0.3
O=C(NCCc1cscn1)C1CCC(=O)N(Cc2ccc(Cl)cc2)C1 (configuration not stated) | 1.5 | -2.6 | 2.5 | 13.8 | -21.5 | -3.7 | 0.4 | 0.3
CN(C)S(=O)(=O)c1ccc2oc(SCC(N)=O)nc2c1 | 3.9 | 2.8 | 7.2 | 0.5 | -13.9 | -4.4 | 0.5 | 1.0

Assay outcomes: PubChem BioAssay, several laboratories
